NOMO-1 viab: STK33 inhibitor candidate reducing NOMO-1 cell viability. NOMO-1 AML viability, CellTiter-Glo luminescence, 72 h. inhibition, % (no concentration beside the values). 7.5% of 37,000 active. AID 2330;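 active means most replicates above 80%; inconclusive means exactly half above 80%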;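 further: wells of about 30 µL received 25 nL stock; 0% = median of vehicle wells and 100% = reference inhibitor level; the first replicate is given; inactives centre near 10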
The depositor's hits bear a star; u = inconclusive. Some of the compounds tested, so the mix of outcomes need not match the whole.

SMILES | NOMO-1 viab
COc1ccc(S(=O)(=O)Nc2ccc3c(c2)CC(=O)N([C@@H](C)CO)C[C@@H](C)[C@@H](CN(C)S(=O)(=O)c2ccc(OC)cc2)O3)cc1 | 12.4
COc1ccc(-n2c(SCC(=O)c3ccc(Cl)cc3)nnc2-c2ccccc2)cc1 | -0.2
Cc1ccc(SC(C)C(=O)Nc2ccc(C(C)(C)C)cc2)cc1 (configuration not stated) | 49.2
C[C@H](CO)N1C[C@H](C)[C@@H](CN(C)Cc2ccncc2)Oc2ccc(NC(=O)NC3CCCCC3)cc2C1=O | -9.4
O=C(CSCc1ccccc1Br)Nc1cccnc1 | 23.0
C[C@@H]1CN([C@H](C)CO)C(=O)c2cccc(NS(=O)(=O)c3cccs3)c2O[C@H]1CN(C)Cc1ccc(Oc2ccccc2)cc1 | 15.3
CNC[C@H]1Oc2ccc(NS(C)(=O)=O)cc2C(=O)N([C@H](C)CO)C[C@@H]1C | 10.9
C[C@@H]1CCCCO[C@@H](CN(C)C(=O)Nc2cccc3ccccc23)[C@@H](C)CN([C@H](C)CO)C(=O)c2cc(NC(=O)Nc3ccc(C(F)(F)F)cc3)ccc2O1 | 54.8
COC(=O)c1ccccc1NC(=O)CSc1nnc(-c2ccc(OC)cc2)n1C | 2.7
C[C@H]1CN([C@@H](C)CO)C(=O)c2cc(NC(=O)Nc3ccc(C(F)(F)F)cc3)ccc2O[C@@H]1CN(C)C(=O)Nc1cccc2ccccc12 | 25.2
O=C(O)Cc1ccc(NC(=O)CN2C(=O)c3ccccc3C2=O)cc1 | 27.8
COc1ccc(NC(=O)COc2ccc(C(C)(C)C)cc2Br)c([N+](=O)[O-])c1 | 24.3
CC1=CCC[C@@H]2[C@@](C)(CCc3ccoc3)[C@H](C(=O)O)CC[C@@]12C | 23.7
CN(CC(=O)C1=C(c2ccc(Br)cc2)C(=O)c2ccccc2C1=O)c1ccccc1 | 125.8*
NC(=NCc1ccc(Cl)cc1Cl)NC(=O)c1nc(Cl)c(N)nc1N | 120.4*
O=C(COc1cccc(C(F)(F)F)c1)NCc1ccco1 | 43.2
Cc1ccc(S(=O)(=O)Nc2ccc3c(c2)C(=O)N([C@@H](C)CO)C[C@@H](C)[C@@H](CN(C)CC2CCCCC2)O3)cc1 | 3.0
O=C(CCCn1cc([N+](=O)[O-])cn1)Nc1ccc(F)cc1 | 11.3
CC(C)(O)C#Cc1ccccc1C(=O)NC(Cc1c[nH]c2ccccc12)C(=O)O (configuration not stated) | 11.0
CNC[C@@H]1Oc2c(NS(=O)(=O)c3ccc(C)cc3)cccc2C(=O)N([C@H](C)CO)C[C@H]1C | 28.8
C[C@H]1CN([C@@H](C)CO)C(=O)c2cc(NC(=O)CCN3CCOCC3)ccc2O[C@@H]1CN(C)C(=O)NC1CCCCC1 | 1.0
CC1=NNC(=O)C1Oc1ccc(Cl)cc1Cl (configuration not stated) | 11.6
COC(=O)c1cc(C(=O)OC)cc(-n2c(C)cc(C(=O)CSc3nc(C)cc(C)c3C#N)c2C)c1 | 23.2
C[C@H](CO)N1C[C@H](C)[C@@H](CN(C)Cc2ccc3c(c2)OCO3)Oc2ccc(NC(=O)CCN3CCOCC3)cc2C1=O | 15.7
O=C(NCC1CCCO1)C1CC(c2ccccc2O)=NO1 (configuration not stated) | -3.0
Cn1c(=O)c2c(nc(SCC(N)=O)n2Cc2ccccc2F)n(C)c1=O | 3.0
COc1cccc(NC(=O)c2cc([N+](=O)[O-])ccc2NC(=O)CN2CCCCCC2)c1 | 40.2
O=C(CSc1n[nH]c(-c2ccccc2)n1)Nc1ccc(Br)cc1 | -18.6
CC(C)NC(=O)Nc1cccc2c1O[C@H](CN(C)Cc1ccc(C(F)(F)F)cc1)[C@H](C)CN([C@H](C)CO)C2=O | 19.7
C[C@@H]1CCCCO[C@@H](CN(C)C(=O)NC2CCCCC2)[C@@H](C)CN([C@H](C)CO)C(=O)c2cc(NC(=O)c3ccccc3)ccc2O1 | 15.0
COC(=O)c1cc(OC)c(OC)cc1NC(=O)C(C)Oc1ccc(C(C)(C)C)cc1 (configuration not stated) | u
CCOC(=O)c1cnn2c(N)c(C#N)cnc12 | 15.7
CC(C)NC(=O)Nc1ccc2c(c1)C(=O)N([C@H](C)CO)C[C@H](C)[C@H](CN(C)C(=O)Nc1ccc(F)cc1)OCCCC[C@@H](C)O2 | -8.2
NC(=O)CSc1oc(-c2ccccc2)nc1S(=O)(=O)c1ccccc1 | 32.0
NNC(=O)CCc1ccccc1 | -24.1
C[C@@H]1CN([C@H](C)CO)C(=O)Cc2cc(NC(=O)Nc3ccc(F)cc3)ccc2O[C@H]1CN(C)Cc1ccc(C(F)(F)F)cc1 | 116.0*
Cn1c(=O)c2c(nc(N3CCOCC3)n2CCCN)n(C)c1=O | -9.1
CC(C)NC(=O)N(C)C[C@H]1Oc2ccc(NS(=O)(=O)c3ccccc3)cc2C(=O)N([C@H](C)CO)C[C@H]1C | -10.6
O=C(COc1ccc(F)cc1)Nc1sc2c(c1C(=O)NC1CCS(=O)(=O)C1)CCCC2 (configuration not stated) | -0.7
Cc1noc(C)c1NC(=O)Nc1ccc2c(c1)C(=O)N([C@H](C)CO)C[C@@H](C)[C@H](CN(C)S(=O)(=O)c1ccc(F)cc1)O2 | 8.6
Cc1noc(C)c1NC(=O)N(C)C[C@H]1Oc2ccc(NS(C)(=O)=O)cc2C(=O)N([C@@H](C)CO)C[C@@H]1C | 19.9
Cc1ccc(S(=O)(=O)N(C)C[C@H]2Oc3c(NC(=O)c4ccncc4)cccc3C(=O)N([C@H](C)CO)C[C@@H]2C)cc1 | 3.5
Cc1noc(C)c1NC(=O)N(C)C[C@H]1Oc2ccc(NC(=O)Cc3cn(C)c4ccccc34)cc2C(=O)N([C@@H](C)CO)C[C@H]1C | 3.4
Cc1noc(C)c1NC(=O)Nc1ccc2c(c1)CC(=O)N([C@@H](C)CO)C[C@H](C)[C@@H](CN(C)C(=O)Nc1ccc(F)cc1)O2 | 8.6
O=C1c2ccccc2C(=O)N1Cc1nc(-c2ccccn2)no1 | -8.2
C[C@@H]1CN([C@H](C)CO)C(=O)c2cc(NC(=O)Nc3ccccc3)ccc2O[C@@H]1CN(C)S(=O)(=O)c1ccc(Cl)cc1 | 7.8
C[C@H](CO)N1C[C@H](C)[C@H](CN(C)Cc2ccc3c(c2)OCO3)Oc2ccc(NC(=O)Cc3ccccc3)cc2C1=O | 108.7*
CC(C)(C)c1ccc(C(=O)Nc2nonc2-c2nc3ccccc3[nH]2)cc1 | 25.6
CC(C)N(CCC#N)S(=O)(=O)c1ccccc1[N+](=O)[O-] | -3.2
C[C@@H]1CN([C@H](C)CO)C(=O)c2cc(NC(=O)Nc3cccc4ccccc34)ccc2O[C@H]1CN(C)Cc1ccc(Cl)c(Cl)c1 | 111.5*
O=C(OCC1CC(c2ccccc2)=NO1)c1cccc(C(=O)OCC2CC(c3ccccc3)=NO2)n1 (configuration not stated) | 15.1
COc1ccc(NC(=O)N(C)C[C@H]2Oc3ccc(NC(=O)Nc4ccc5c(c4)OCO5)cc3CC(=O)N([C@@H](C)CO)C[C@@H]2C)cc1 | -18.4
CCOc1ccccc1NC(=O)CSc1ncnc2sc(C)c(C)c12 | -2.6
CCOC(=O)CSc1ncnc2scc(-c3ccc(Cl)cc3)c12 | 1.9
COc1ccc(S(=O)(=O)N(C)C[C@H]2Oc3ccc(NC(=O)NC4CCCCC4)cc3C(=O)N([C@H](C)CO)C[C@@H]2C)cc1 | -14.1
COc1ccc(C2CC(=O)c3ccccc3O2)cc1 (configuration not stated) | -5.1
C[C@@H]1CN([C@H](C)CO)C(=O)Cc2cc(N(C)C)ccc2O[C@H]1CN(C)S(=O)(=O)c1cn(C)cn1 | 7.0
Cc1noc(C)c1S(=O)(=O)Nc1ccc2c(c1)C(=O)N([C@@H](C)CO)C[C@@H](C)[C@H](CN(C)C(=O)NC(C)C)O2 | 33.0
C[C@@H]1CN([C@@H](C)CO)C(=O)c2cc(NC(=O)CCCCCC(=O)Nc3ccccc3N)ccc2O[C@H]1CN(C)S(=O)(=O)c1ccccc1 | 6.9
Cc1ccc(S(=O)(=O)Nc2ccc3c(c2)C(=O)N([C@H](C)CO)C[C@@H](C)[C@H](CN(C)C(=O)Nc2ccc4c(c2)OCO4)O3)cc1 | 3.1

Remaining list, next part.
SMILES | NOMO-1 viab
C[C@@H]1CN([C@@H](C)CO)C(=O)Cc2cc(NS(=O)(=O)c3ccc(F)cc3)ccc2O[C@@H]1CN(C)S(=O)(=O)c1cccs1 | 27.8
CCN(CC(=O)Nc1cccc(C(F)(F)F)c1)S(=O)(=O)c1ccc(C)cc1 | -15.1
Cc1noc(C)c1NC(=O)N(C)C[C@H]1Oc2ccc(NC(=O)CCN3CCOCC3)cc2C(=O)N([C@H](C)CO)C[C@@H]1C | -2.7
O=C(CN1C(=O)c2cccc3cccc1c23)Nc1cccnc1 | -2.6
CC(=O)c1ccc(NC(=O)COc2ccccc2C(=O)Nc2sc3c(c2C#N)CCCC3)cc1 | -9.0
C[C@H](CO)N1C[C@H](C)[C@@H](CN(C)Cc2ccc(C(=O)Nc3ccccc3N)cc2)Oc2ccc(NS(=O)(=O)c3ccc(Cl)cc3)cc2C1=O | 39.4
CC(C)NC(=O)Nc1ccc2c(c1)CC(=O)N([C@@H](C)CO)C[C@@H](C)[C@@H](CN(C)Cc1ccc(C(=O)O)cc1)O2 | 10.8
Cc1cc(C(=O)Nc2cccc3c2O[C@@H](CN(C)C(=O)Nc2ccc4c(c2)OCO4)[C@@H](C)CN([C@H](C)CO)C3=O)n(C)n1 | 9.7
CCn1c(SCC(=O)c2ccc(Br)cc2)nnc1-c1ccncc1 | 21.4
C[C@H]1CN([C@@H](C)CO)C(=O)c2cccc(NS(=O)(=O)c3ccc(Cl)cc3)c2O[C@@H]1CN(C)C(=O)NC1CCCCC1 | -3.3
Cn1c(SCC(=O)Nc2ccccc2Cl)nnc1-c1ccc(Br)cc1 | 16.3
COc1ccc(NC(=O)N(C)C[C@H]2Oc3c(NC(=O)Nc4c(C)noc4C)cccc3C(=O)N([C@H](C)CO)C[C@@H]2C)cc1 | 0.0
O=C(CSc1nc(O)cc(=O)n1-c1ccccc1F)Nc1ccc(Cl)cc1Cl | 9.6
OC(CCCN1CCCCC1)(c1ccccc1)c1ccccc1 | 13.3
C[C@@H]1CN([C@@H](C)CO)C(=O)c2cccc(NC(=O)C3CCOCC3)c2O[C@@H]1CN(C)Cc1ccc(C(=O)Nc2ccccc2N)cc1 | 126.4*
C[C@H]1CN([C@@H](C)CO)C(=O)c2cccc(NS(=O)(=O)c3ccc(F)cc3)c2O[C@H]1CN(C)S(=O)(=O)c1cn(C)cn1 | -19.1
C[C@H]1CN([C@@H](C)CO)C(=O)c2cccc(NS(=O)(=O)c3cccs3)c2O[C@H]1CN(C)C(=O)Nc1ccc(F)cc1 | 13.4
C[C@H]1CN([C@@H](C)CO)C(=O)c2cc(NC(=O)Nc3ccccc3)ccc2O[C@H]1CN(C)Cc1ccccc1 | 32.8
C[C@@H]1CN([C@@H](C)CO)C(=O)c2cc(NS(=O)(=O)c3ccccc3)ccc2O[C@H]1CN(C)Cc1ccc(C(F)(F)F)cc1 | 37.9
CCCNC(=O)N(C)c1nncnc1C(=O)NC | -1.6
Cc1noc(C)c1NC(=O)N(C)C[C@H]1Oc2ccc(NC(=O)Cn3cnnn3)cc2C(=O)N([C@H](C)CO)C[C@H]1C | 32.9
C[C@@H]1CCCCO[C@H](CN(C)S(=O)(=O)c2cccs2)[C@@H](C)CN([C@H](C)CO)C(=O)c2cc(NC(=O)c3ccncc3)ccc2O1 | 10.6
COc1ccc(NC(=O)CSc2nc3c(c(C(F)(F)F)c2C#N)CCC3)c(OC)c1 | 0.8
C[C@H](CO)N1C[C@H](C)[C@@H](CN(C)CC2CCCCC2)Oc2c(NC(=O)c3nc4ccccc4s3)cccc2C1=O | 108.0*
CCCCCC[C@H](O)[C@@H]1C[C@@H](O)C2=C(O1)[C@@H](O)CCC2=O | 3.0
C[C@@H]1CN([C@H](C)CO)C(=O)c2cc(NC(=O)NC3CCCCC3)ccc2O[C@H]1CN(C)Cc1ccc(Oc2ccccc2)cc1 | u
Cc1ccc(S(=O)(=O)Nc2cccc3c2O[C@@H](CN(C)Cc2ccc(-c4ccccc4)cc2)[C@H](C)CN([C@@H](C)CO)C3=O)cc1 | 16.3
C[C@H](CO)N1C[C@H](C)[C@H](CN(C)Cc2ccc(-c3ccccc3)cc2)Oc2ccc(NC(=O)CCCCCC(=O)Nc3ccccc3N)cc2CC1=O | 139.2*
CNC[C@H]1Oc2ccc(NC(=O)NC3CCCCC3)cc2CC(=O)N([C@@H](C)CO)C[C@H]1C | 0.7
CNC[C@@H]1Oc2ccc(NC(=O)Nc3ccc(C(F)(F)F)cc3)cc2C(=O)N([C@H](C)CO)C[C@H]1C | -4.1
COc1ccc(NC(=O)CSc2nc(-c3cccs3)cc(-c3ccsc3)c2C#N)cc1OC | 26.3

Given tab-delimited: entries from further up.
compound	NOMO-1 viab
CNC[C@H]1Oc2ccc(NC(=O)NC3CCCCC3)cc2CC(=O)N([C@@H](C)CO)C[C@H]1C	0.7
CNC[C@@H]1Oc2ccc(NC(=O)Nc3ccc(C(F)(F)F)cc3)cc2C(=O)N([C@H](C)CO)C[C@H]1C	-4.1

Structures from the list above with bromine, in the order listed:
SMILES | NOMO-1 viab
O=C(CSCc1ccccc1Br)Nc1cccnc1 | 23.0
COc1ccc(NC(=O)COc2ccc(C(C)(C)C)cc2Br)c([N+](=O)[O-])c1 | 24.3
CN(CC(=O)C1=C(c2ccc(Br)cc2)C(=O)c2ccccc2C1=O)c1ccccc1 | 125.8*
O=C(CSc1n[nH]c(-c2ccccc2)n1)Nc1ccc(Br)cc1 | -18.6
CCn1c(SCC(=O)c2ccc(Br)cc2)nnc1-c1ccncc1 | 21.4
Cn1c(SCC(=O)Nc2ccccc2Cl)nnc1-c1ccc(Br)cc1 | 16.3

Screening results from PubChem BioAssay.
